CDC25B CDK2 inh – human CDC25B-CDK2/CyclinA binding inhibition; HTRF CDC25B-CDK2/CyclinA binding, anti-His/anti-Flag; stronger effect = higher value; P30305+P24941; z-score (test concentration not listed); 94,000 compounds, 0.72% hits;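 note: score is relative to mean and SD of negative controls; strong numbers were not always called active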
HIV TAR-Tat – HIV-1 TAR-Tat binding disruption. HIV-1 TAR RNA, Tat peptide displacement FRET; stronger effect = higher value. z-score (test concentration not listed). 100,000 compounds, 0.6% hits. AID 1259389;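 note: score is relative to mean and SD of negative controls; some compounds called inactive have numbers as strong as hits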
* marks the source's active call; other numbers are inactive results.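 Rule for the calls: active = z-score from 3 up in half or more of its runs; inactive = the rest.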

COc1ccc(O)c(C2=NN3C(C2)c2cccc(OC)c2OC3c2ccc(F)cc2)c1 (configuration not stated) was read as CDC25B CDK2 inh -0.31 and HIV TAR-Tat -1.4.
For CC1(C)C=Cc2c(c3occc3c3oc(-c4ccccc4)cc(=O)c23)O1 the results were CDC25B CDK2 inh -1.7.
C/C=C(\C)C(=O)Nc1ccccc1CC1c2ccccc2CCN1C (configuration not stated) was read as CDC25B CDK2 inh -0.41.
`CCn1cc(C2CC(=O)N(c3ccc(Br)cc3)C2=O)c2ccccc21` (configuration not stated) gave CDC25B CDK2 inh -1.4 and HIV TAR-Tat -4.3.
For O=C(N=S1CCN(S(=O)(=O)c2ccc(Cl)cc2)CC1)Nc1ccc(Cl)cc1 the results were CDC25B CDK2 inh -0.71.
CCS(=O)(=O)Nc1cc(-c2cn3ccc(C)cc3n2)ccc1C was read as CDC25B CDK2 inh -0.29 and HIV TAR-Tat 0.94.
`COc1ccccc1-c1csc(-c2ccccn2)n1` gave CDC25B CDK2 inh -0.48 and HIV TAR-Tat 1.3.
`CC(C)(C)c1ccc(OCc2cc(=O)n3nc(-c4cccs4)sc3n2)cc1` gave CDC25B CDK2 inh -1.8 and HIV TAR-Tat 0.76.
Screening O=S(=O)(NCCc1nnc2ccc(SCc3cccc(F)c3)nn12)c1ccccc1 returned HIV TAR-Tat -0.5.
Brc1cccc(-c2nc(-c3ccncc3)no2)c1 was read as CDC25B CDK2 inh -1.6 and HIV TAR-Tat -0.47.
O=C(O)CCC(=O)N1N=C(c2ccccc2)CC1c1cccs1 (configuration not stated) was read as CDC25B CDK2 inh 0.14.
Screening O=C(Nc1nc2ccccc2s1)C1(c2cccs2)CCOCC1 returned HIV TAR-Tat 1.9.
Screening CC1(C)CC(NC(=O)COc2ccc(Br)cc2)CC(C)(C)N1 returned CDC25B CDK2 inh -1.7.
O=C(c1ccc(CN2CC(=O)N3CSCC3C2=O)cc1)N1CCCC1 (configuration not stated) was read as HIV TAR-Tat -0.77.
`Cn1c(=O)n(C)c2cc3[nH]c(=O)c(C(=O)O)nc3cc21` gave CDC25B CDK2 inh 4.5 and HIV TAR-Tat 1.2.
`O=C(CN1C(=O)c2cccnc2Oc2ccc(Cl)cc21)N1CCCC1` gave HIV TAR-Tat -0.33.
`CCOC(=O)c1sc(N2C(=O)c3oc4ccccc4c(=O)c3C2c2ccc(F)cc2)nc1C` (configuration not stated) gave CDC25B CDK2 inh 0.07 and HIV TAR-Tat -0.56.
For COC(=O)C1=C(C)Nc2ncnn2C1c1cccc(F)c1 (configuration not stated) the results were CDC25B CDK2 inh -1.2 and HIV TAR-Tat -0.89.
Screening CCOc1ccc(CCNc2nc3ccccc3n3cnnc23)cc1OCC returned CDC25B CDK2 inh -1.1 and HIV TAR-Tat -0.2.
`CSc1cccc(N2C(=O)N(Cc3ccccc3C)C3CS(=O)(=O)CC32)c1` (configuration not stated) gave HIV TAR-Tat 1.7.
Screening COc1ccc(C(CNc2nn3cnnc3c3ccccc23)N2CCCC2)cc1 (configuration not stated) returned CDC25B CDK2 inh -0.91 and HIV TAR-Tat -0.18.
Screening COc1nnc(C)c2nnn(Cc3ccccc3Cl)c12 returned CDC25B CDK2 inh 0.28 and HIV TAR-Tat 2.
CN(C)S(=O)(=O)N(CC(=O)Nc1ccc(S(=O)(=O)N2CCCC2)cc1)c1ccccc1 was read as CDC25B CDK2 inh -0.29 and HIV TAR-Tat 0.61.
`O=C(COc1ccc(F)cc1)Nc1nnc(S(=O)(=O)N2CCCC2)s1` gave CDC25B CDK2 inh -0.74 and HIV TAR-Tat 0.77.
O=S(=O)(Cc1cccc(C(F)(F)F)c1)NCc1cccs1 was read as CDC25B CDK2 inh 0.18.
For Cc1ccnc(NC(=O)C(=O)NC(=O)c2c(F)cccc2Cl)c1 the results were CDC25B CDK2 inh -0.29.
For O=C(O)CCCC(=O)Nc1cccc(F)c1C(=O)O the results were CDC25B CDK2 inh -2.5.
Screening O=C(CCc1nc2sc3c(c2c(=O)[nH]1)CCCC3)Nc1cccc(Cl)c1 returned HIV TAR-Tat -0.17.
Screening COC(=O)C1C(=O)C2=C(CC1C)NC(C)=C(C(=O)OC1CCCCC1)C2c1ccccc1OC(C)C (configuration not stated) returned CDC25B CDK2 inh -1.4 and HIV TAR-Tat 0.52.
For Cc1cc2c3c([nH]c2cc1S(=O)(=O)Nc1ccccc1F)CC(C)(C)CC3=O the results were HIV TAR-Tat 0.08.
For CCCNC(=O)Cn1cc2c(n1)CCCCC2 the results were CDC25B CDK2 inh -0.25.
For CC(C)CNC(=O)N1CCCN(S(=O)(=O)c2ccc3c(ccn3C)c2)CC1 the results were HIV TAR-Tat 0.42.
For O=C(COc1ccc(Cl)cc1)Nc1noc(-c2cccs2)n1 the results were CDC25B CDK2 inh -3.5 and HIV TAR-Tat -0.97.
Screening COCCNC(=O)c1cnn2c3c(cnc12)CCCC3 returned HIV TAR-Tat -0.01.
`O=C(Cn1c(=O)n(Cc2ccco2)c(=O)c2cccnc21)Nc1ccc(Br)cc1` gave CDC25B CDK2 inh -0.62 and HIV TAR-Tat 0.31.
For COc1cc(OC)c(NC(=O)c2ncoc2-c2cccs2)cc1Cl the results were HIV TAR-Tat 2.2.
For CN(C)c1ccc2c3c(cccc13)C(=O)N(c1ccccc1)C2=O the results were CDC25B CDK2 inh -1.4 and HIV TAR-Tat -8.
Cc1ccc(Nc2nc3ccc(Cl)cc3n3cnnc23)cc1 was read as CDC25B CDK2 inh -6 and HIV TAR-Tat -0.19.
`Fc1cccc(Cl)c1CN1CCN(CCCNc2nc(-c3ccccc3)ns2)CC1` gave CDC25B CDK2 inh 1.3.
For COc1cc(C(=O)NCC(c2ccccc2)c2c[nH]c3ccccc23)cc(OC)c1OC (configuration not stated) the results were CDC25B CDK2 inh 1.2.

Random excerpt: two entries already listed.
Brc1cccc(-c2nc(-c3ccncc3)no2)c1 was read as CDC25B CDK2 inh -1.6 and HIV TAR-Tat -0.47.
Screening CC1(C)CC(NC(=O)COc2ccc(Br)cc2)CC(C)(C)N1 returned CDC25B CDK2 inh -1.7.

Remaining list, next part:
O=C(CSc1nc2ccccc2c(=O)[nH]1)Nc1cccc(Br)c1 was read as HIV TAR-Tat 1.7.
Screening CCn1nc(C)c(CCNC(=O)Nc2ccc(F)cc2F)c1C returned HIV TAR-Tat -0.22.
Screening CCS(=O)(=O)N1CCN(c2cc(Nc3ccc(C)cc3)nc(C)n2)CC1 returned CDC25B CDK2 inh -1.1 and HIV TAR-Tat -0.59.
For O=C(NCc1ccco1)C1CC(c2ccc(F)cc2)=NO1 (configuration not stated) the results were CDC25B CDK2 inh -1.6 and HIV TAR-Tat 0.33.
COC(=O)C1=C(C)NC2=C(C(=O)CCC2)C1c1ccc(C(=O)OC)cc1 (configuration not stated) was read as CDC25B CDK2 inh -0.28 and HIV TAR-Tat -3.9.
`CC1C(=O)N2CCCc3cc(S(=O)(=O)NCc4ccco4)cc1c32` (configuration not stated) gave HIV TAR-Tat 1.6.
Screening O=C(O)CN(CCOCCOCCN(CC(=O)O)CC(=O)O)CC(=O)O returned CDC25B CDK2 inh -1.1.
CCOC(=O)c1cncc(Br)c1 was read as CDC25B CDK2 inh -0.32.
Screening Cn1nc(C(=O)NC2CCCCC2)c2c1-c1ccsc1CC2 returned HIV TAR-Tat -0.04.
Screening Cc1ccc(F)cc1Nc1nc2ccccc2n2cnnc12 returned CDC25B CDK2 inh -2.2 and HIV TAR-Tat -0.41.
For Nc1c(-c2ccccc2)cnc2c(-c3ccccc3)cnn12 the results were CDC25B CDK2 inh 0.24.
Fc1ccc(NCc2cn(-c3ccccc3)nc2-c2cccs2)c(F)c1 was read as CDC25B CDK2 inh 2.4 and HIV TAR-Tat 2.3.
`Cc1onc(C(=O)Nc2ccc(F)cc2F)c1[N+](=O)[O-]` gave CDC25B CDK2 inh 0.65 and HIV TAR-Tat 0.68.
Screening COc1ccc(C2CC(c3ccccc3)n3nnnc3N2)cc1 (configuration not stated) returned HIV TAR-Tat 0.97.
For COc1ccc(NC(=O)CSc2nncn3c2cc2occc23)cc1 the results were HIV TAR-Tat -0.85.
Screening CC(=O)N1c2ccc(S(=O)(=O)N3CCCC(C(=O)N4CCC(C)CC4)C3)cc2CC1C (configuration not stated) returned HIV TAR-Tat 2.6.
For CSc1ccc(CNC(=O)c2cc3cc4ccc(Cl)cc4nc3o2)cc1 the results were HIV TAR-Tat -0.47.
`Cn1nc(OC(C)(C)C(=O)O)cc1C(F)(F)F` gave CDC25B CDK2 inh -4.1.
Cc1nc2ccccn2c1C(=O)N/N=C/c1cn(-c2ccccc2)nc1-c1cccs1 was read as CDC25B CDK2 inh -0.16.
For CN1[C@@H]2CCC[C@H]1CC(NC(=O)c1nn(C)c3ccccc13)C2 (some centres not stated) the results were HIV TAR-Tat 1.2.
`CC1CCc2onc(C(=O)N3CCN(c4ccc(F)cc4)CC3)c2C1` (configuration not stated) gave HIV TAR-Tat 2.5.
`CC1(C)CC(=O)C2=C(C1)Nc1ccccc1NC2c1coc2ccccc2c1=O` (configuration not stated) gave CDC25B CDK2 inh 2.3 and HIV TAR-Tat 0.1.
For CCOC(=O)c1c(CSc2ccccc2)n(C)c2ccc(O)cc12 the results were CDC25B CDK2 inh -2.2.
For Cn1c(=O)c2c(-c3ccc(Br)cc3)n(C(CO)(CO)CO)cc2n(C)c1=O the results were CDC25B CDK2 inh -0.96 and HIV TAR-Tat 1.1.
O=C(c1ccco1)N1CCN(c2ccccn2)CC1 was read as HIV TAR-Tat 4.1.
CC1=C(C(=O)OCCc2ccccc2)C(c2ccc(C)o2)C2=C(CCCC2=O)N1 (configuration not stated) was read as CDC25B CDK2 inh -2 and HIV TAR-Tat 3.5.
For Cc1nn(CC(=O)NCCCN2CC(C)CC(C)C2)c(=O)c2c1sc1ccccc12 (configuration not stated) the results were CDC25B CDK2 inh -0.35 and HIV TAR-Tat 0.48.
`O=C(Nc1ccc(F)c(Cl)c1)C1CCN(c2ncnc3c2nc2n3CCCCC2)CC1` gave HIV TAR-Tat -1.4.
Screening CC1(C)CC(NC(=O)CCC(=O)NC2CC(C)(C)NC(C)(C)C2)CC(C)(C)N1 returned CDC25B CDK2 inh -1.2 and HIV TAR-Tat 1.5.
For COc1cccc(-c2cn3nc(C)sc3n2)c1 the results were CDC25B CDK2 inh -1.5 and HIV TAR-Tat 2.2.
Cc1cc(-c2ccc(S(=O)(=O)N3CCN(c4cccc(C)c4C)CC3)s2)on1 was read as HIV TAR-Tat 0.27.
For COc1ccc(O)c(C2=NN3C(C2)c2ccccc2OC3c2ccc(OC)c(OC)c2)c1 (configuration not stated) the results were CDC25B CDK2 inh -0.33 and HIV TAR-Tat -1.2.
CCCCCOC(=O)C(C)Sc1n[nH]c(=O)[nH]c1=O (configuration not stated) was read as CDC25B CDK2 inh 0.09 and HIV TAR-Tat 2.6.
Screening Cc1cc2n(n1)C(c1ccc(Cl)cc1)Nc1c(C)cccc1-2 (configuration not stated) returned CDC25B CDK2 inh -0.68 and HIV TAR-Tat 0.43.
For Brc1ccc2c(c1)NC(c1cccs1)=NC(c1cccs1)=N2 the results were CDC25B CDK2 inh 1.1 and HIV TAR-Tat 1.1.
Screening CCOC(=O)CC(Sc1ccccc1N)c1cc(OC)c(OC)c(OC)c1 (configuration not stated) returned CDC25B CDK2 inh -1.8.
Screening O=C(Nc1cccc(Cl)c1)Nc1nnc(C(c2ccccc2)c2ccccc2)s1 returned CDC25B CDK2 inh -3.2.
COc1ccc(-c2occ(C(=O)O)c2C(=O)O)cc1 was read as CDC25B CDK2 inh 0.23 and HIV TAR-Tat -0.47.
For O=C1N(Cc2ccc(Cl)cc2)c2ccccc2C1(O)c1c[nH]c2ccccc12 (configuration not stated) the results were CDC25B CDK2 inh 2 and HIV TAR-Tat 0.28.
For Cc1cc(C)nc(NC(=O)Nc2cccc(Cl)c2)n1 the results were CDC25B CDK2 inh -1.5 and HIV TAR-Tat -1.1.
`CCCCN(CC)C(=O)C(=O)c1c[nH]c2ccccc12` gave CDC25B CDK2 inh -0.38.
`CN1CCN(C(=O)c2oc3ccccc3c2NC(=O)C2CCCCC2)CC1` gave HIV TAR-Tat 1.4.
O=c1cc(CSc2ccc(Cl)cc2)nc2sc(-c3cccs3)nn12 was read as CDC25B CDK2 inh -1.5 and HIV TAR-Tat 0.39.
Cc1ccc2ncc(C(=O)N3CCN(c4ccccc4F)CC3)c(=O)n2c1 was read as CDC25B CDK2 inh -1.3 and HIV TAR-Tat -1.1.
Screening C=CCNC(=O)NC1COc2ccccc2C1 (configuration not stated) returned HIV TAR-Tat 1.1.
`CC1CCCCN1c1csc2ccc(F)cc2c1=O` (configuration not stated) gave HIV TAR-Tat 0.68.

Molecules listed so far with an aryl thioether with sulfur outside any ring, in the order listed:
Screening O=S(=O)(NCCc1nnc2ccc(SCc3cccc(F)c3)nn12)c1ccccc1 returned HIV TAR-Tat -0.5.
`CSc1cccc(N2C(=O)N(Cc3ccccc3C)C3CS(=O)(=O)CC32)c1` (configuration not stated) gave HIV TAR-Tat 1.7.
O=C(CSc1nc2ccccc2c(=O)[nH]1)Nc1cccc(Br)c1 was read as HIV TAR-Tat 1.7.
For COc1ccc(NC(=O)CSc2nncn3c2cc2occc23)cc1 the results were HIV TAR-Tat -0.85.
For CSc1ccc(CNC(=O)c2cc3cc4ccc(Cl)cc4nc3o2)cc1 the results were HIV TAR-Tat -0.47.
For CCOC(=O)c1c(CSc2ccccc2)n(C)c2ccc(O)cc12 the results were CDC25B CDK2 inh -2.2.
CCCCCOC(=O)C(C)Sc1n[nH]c(=O)[nH]c1=O (configuration not stated) was read as CDC25B CDK2 inh 0.09 and HIV TAR-Tat 2.6.
Screening CCOC(=O)CC(Sc1ccccc1N)c1cc(OC)c(OC)c(OC)c1 (configuration not stated) returned CDC25B CDK2 inh -1.8.
O=c1cc(CSc2ccc(Cl)cc2)nc2sc(-c3cccs3)nn12 was read as CDC25B CDK2 inh -1.5 and HIV TAR-Tat 0.39.

High-throughput results as filed in PubChem BioAssay.
